D2 potentiator – positive allosteric modulators of human D2 dopamine receptor; DiscoveRx D2 beta-arrestin cells, luminescence, 90 min; 100% = 57 uM dopamine signal; hit rate 0.23% among 360,000; potentiation, % (test concentration not listed); P14416; active = potentiation of 50% or more; inconclusive = 30% to 50%; inactive = 30% or less;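 note: compound concentration not given in the record; tested on top of an EC20 dose of dopamine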
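PathHunter beta-arrestin assay in DiscoveRx D2 cells. Compounds were added with an EC20 of dopamine (50 nM final) for 90 min at 37 deg C. Luminescence was read 1 h after detection reagent, with 57 uM dopamine as the EC100 control.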
Menin-MLL FL inh – inhibitors of human menin-MLL interaction, wild-type MLL peptide; 290,000 tested, under 10 active; Fluorescence polarization, fluorescein-MLL peptide displacement from menin; FP activity change, % at 61.4 µM; inconclusive = falling polarisation curve, or a change in total fluorescence; inactive = total fluorescence flat and polarisation flat or rising; no compound was filed as active; the % refers to the polarisation; negative = inhibition;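 note: % of control where 0% means no effect; inhibitors lower the polarisation; unlabelled MLL peptide was the positive control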
ClpP mod – qHTS Assay for Activators of ClpP; ATP-dependent Clp protease proteolytic subunit (Bacillus subtilis (strain 168)), P80244; AID 651965, 2013; Potency, µM (highest dose often 57.5 µM), for inactives: top-dose activity change, negative = active; purified B. subtilis ClpP, FRET peptide cleavage, 20 min; hit rate 1.9% among 340,000; active = well fitted falling curve with a large enough effect; inconclusive = small, poorly fitted or top-dose-only effect; inactive = no such curve, though single readings can be large or run the other way; note: potency is the fitted concentration of half-maximal effect; the source files actives as falling curves though it sought activators and does not explain the sign; nearly all actives have a fitted effect of over 65% in size; many hits overshoot -100%
Target sequence (P80244 whole entry, looked up): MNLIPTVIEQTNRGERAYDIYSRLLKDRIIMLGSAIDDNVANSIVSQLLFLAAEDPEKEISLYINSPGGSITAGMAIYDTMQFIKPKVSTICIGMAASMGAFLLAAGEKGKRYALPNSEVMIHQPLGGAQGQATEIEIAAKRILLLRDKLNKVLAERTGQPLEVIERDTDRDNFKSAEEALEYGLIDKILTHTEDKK
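Buffer: 100 mM Tris/HCl pH8, 100 mM KCl, 0.05% low protease BSA, 2.5% glycerol, 0.01% Tween-20. ClpP 10 microg/mL final; 20 min RT; delta FRET normalized to ADEP and DMSO controls.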
gsp antag – gsp mutant antagonism | gsp-mutant cells, cAMP HTRF, 30 min; control for the full effect not named in the record | Potency, µM (highest dose often 76.9 µM), without a hit: at the highest dose activity change, negative = inhibition, actives largely listed as inhibitors | hit rate 0.4% among 340,000; active = falling curve of any shape with a large fitted effect; inconclusive = falling curve, mostly with a smaller effect; inactive = flat or rising curve; cell line not stated here;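 note: intracellular cAMP measured with PDE inhibitor Ro 20-1724 present during compound exposure; potency is the fitted concentration of half-maximal effect; % is set by controls: 0 for no effect and ±100 for the full control effect; nearly all actives have a fitted effect of over 65% in size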
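Cells, 2000/well, grown 16–24 h in DMEM 10% FBS with 0.5 mg/ml G418, then compounds plus […] (300 uM addition stock), 30 min at 37C. cAMP read by HTRF (cAMP-d2 and anti-cAMP antibody-K in lysis buffer) after 30 min RT.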
Sfp inh – Sfp phosphopantetheinyl transferase inhibition; Q9F4F7; Potency, µM, for inactives: max response, negative = inhibition, usual class: inhibitors; hit rate 3.5% among 310,000; AID 1490; Biochemical Sfp PPTase activity, qHTS; active = well fitted inhibition curve with a large enough effect; inconclusive = small, poorly fitted or top-dose-only effect, or another doubt; inactive = no such curve, though single readings can be large or run the other way;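 note: the enzyme is Sfp with the accession as filed and its product quenches rhodamine fluorescence; potency is the fitted concentration of half-maximal effect; 0% = enzyme reaction without inhibitor and -100% = no enzyme wells; top concentration of the series not given in the record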
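Compounds were incubated with enzyme (final 15 nM) for 15 min at room temperature before substrate addition started the reaction. Fluorescence at 525 nm excitation, 598 nm emission was recorded immediately and after 30 minutes.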
TRPV1 PAM – potentiators of human vanilloid receptor 1 (TRPV1). hit rate 0.02% among 320,000. potentiation, % at 8.33 µM. Q8NER1. TRPV1-expressing cells, Fluo-8 calcium influx, capsaicin EC20 potentiation; host cell line not named in the record; control for the full effect not named in the record. AID 540277; active means potentiation above 80%; inconclusive means 30% to 80%; inactive means below 30%; note: 0% is about no effect
Target sequence (Q8NER1 whole entry, looked up): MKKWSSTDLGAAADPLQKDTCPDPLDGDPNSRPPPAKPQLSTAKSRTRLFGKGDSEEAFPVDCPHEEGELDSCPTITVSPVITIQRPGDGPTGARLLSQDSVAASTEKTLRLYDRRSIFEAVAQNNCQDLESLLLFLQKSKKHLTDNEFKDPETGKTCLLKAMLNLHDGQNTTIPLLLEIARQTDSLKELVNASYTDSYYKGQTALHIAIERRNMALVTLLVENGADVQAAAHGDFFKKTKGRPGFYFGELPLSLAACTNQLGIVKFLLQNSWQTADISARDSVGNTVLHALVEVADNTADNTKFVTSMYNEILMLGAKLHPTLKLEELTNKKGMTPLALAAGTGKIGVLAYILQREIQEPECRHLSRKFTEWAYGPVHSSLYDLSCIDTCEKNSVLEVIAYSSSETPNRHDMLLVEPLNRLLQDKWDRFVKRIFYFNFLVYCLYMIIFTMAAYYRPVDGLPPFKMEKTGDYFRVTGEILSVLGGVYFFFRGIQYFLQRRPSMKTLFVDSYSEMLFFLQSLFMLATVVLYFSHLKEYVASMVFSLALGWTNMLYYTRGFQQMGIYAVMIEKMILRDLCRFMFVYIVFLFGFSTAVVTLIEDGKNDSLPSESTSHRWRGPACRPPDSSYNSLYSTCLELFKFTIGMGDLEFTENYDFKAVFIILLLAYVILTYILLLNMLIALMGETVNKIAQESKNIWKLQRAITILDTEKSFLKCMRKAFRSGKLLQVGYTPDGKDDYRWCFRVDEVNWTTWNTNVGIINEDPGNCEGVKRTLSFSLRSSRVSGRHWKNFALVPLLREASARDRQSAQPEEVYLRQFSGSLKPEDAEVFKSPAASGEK
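Cells expressing TRPV1 were dye-loaded with Fluo-8 and read kinetically: 10 s baseline, 3 min after compound (agonist portion), then 2 min after EC20 capsaicin (allosteric enhancer portion). Calcium-bound dye fluorescence at 480/520 nm.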
gsp ag – gsp mutant agonism; gsp mutant cells, cAMP HTRF, 30 min; control for the full effect not named in the record; Potency, µM (top dose mostly 76.9 µM), for inactives: at the highest dose activation (cAMP increase), actives largely listed as activators; hit rate 0.13% among 340,000; active = well fitted activation curve with a large enough effect; inconclusive = small, poorly fitted or top-dose-only effect, or another doubt; inactive = no such curve, though single readings can be large or run the other way; cell line not stated here;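 note: phosphodiesterase inhibitor Ro 20-1724 added with compounds to block cAMP breakdown; potency is the fitted concentration of half-maximal effect; nearly all actives have a fitted effect of over 60% in size; about a fifth of the inactives were tested at one dose only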
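Cells in DMEM/10% FBS with G418 were pretreated with compounds in DMSO plus […] (300 uM stock) for 30 min at 37C. cAMP was measured by HTRF (cAMP-d2 plus anti-cAMP antibody-K) after 30 min at room temperature.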
Numbers without * were called inactive; ? = inconclusive; · = no result given; & = joins results of further samples; [ ] = remark or other dose.

SMILES | D2 potentiator | Menin-MLL FL inh | ClpP mod | gsp antag | Sfp inh | TRPV1 PAM | gsp ag
C=CC[n+]1c(-c2ccc(Cl)cc2Cl)csc1Nc1ccc(NC(C)=O)cc1 | -9 | -4.5 | · | -11% | -3% | -5 | 2%
COc1ccc(CNC(=O)CS(=O)(=O)Cc2nc(-c3cccc(OC)c3)oc2C)cc1 | -6 | 2.4 | -26% | -25% | 4% | -18 | 24%
CCOC(=O)c1ccccc1NC(=O)COC(=O)C1=COCCO1 | 3 | 0.9 | -4.9% | 9% | 22% | 5 | -15%
Nc1c(C(=O)N2CCOCC2)sc2nc(N3CCOCC3)c3c(c12)CCCC3 | -19 | -0.7 | 3.9% | 4% | 10µM* | 3 | 11µM*
COc1cccc(Nc2cc(C)c3ccccc3n2)c1 | -7 | -4.9 | -2.5% | -11% | -2% | 2 | -6%[15.4 µM]
O=C(O)CCn1c(=O)[nH]c2ccccc2c1=O | -11 | 3.0 | ? | 1% | 6% | -7 | -37%[inhibitor]
CCN(CC)S(=O)(=O)c1ccc(/C=C/C(=O)Nc2ccc(F)cc2F)cc1 | -7 | 3.0 | 0.3% | -33% | 29% | 16 | -17%
O=C(CSc1nc2cc(Cl)ccc2s1)NC1CCCc2ccccc21 (stereo unspecified) | 3 | · | -2.8% | -16% | 2% | -8 | -60%[inhibitor]
COC(=O)Nc1nnc(/C=C/c2ccccc2)s1 | 0 | 6.1 | -9.1% | 2% | 10% | 0 | 9%
O=C(COc1ccccc1)N1CCc2ccccc2C1 | 3 | 1.9 | 1.6% | -3% | 14% | -3 | -15%
Nc1nc(N2CCN(C(=O)c3ccco3)CC2)nc2ccccc12 | -4 | 2.6 | 4.5µM* | 8% | 6% | -2 | -32%[inhibitor]
COC(=O)Cc1ccc(NC(=S)N2CCN(c3cccc(O)c3)CC2)cc1 | -5 | 1.5 | -0.2% | -25% | 13% | 12 | 1%
O=c1cc(/N=C/c2coc3cc(Br)ccc3c2=O)[nH]c(=S)[nH]1 | 3 | 0.0 | · | -12% | 14% | · | -7%[15.4 µM]
COc1ccc(CN(C(=O)CN2C(=O)C(C)Oc3ccccc32)C2CCCC2)c(OC)c1 (stereo unspecified) | -13 | -0.3 | -1.8% | -28% | 7% | 1 | 17%
O=C(Nc1ccccc1C(=O)NC1CC1)c1ccccc1 | -3 | · | -5.7% | 8% | · | 6 | 9%
Cc1cc(Cl)c(S(=O)(=O)NCc2cccnc2)cc1OCC(N)=O | -24 | 2.2 | 2.0% | 4% | 18% | 8 | 3%
CC(C)[C@H](NC(=O)c1ccco1)C(=O)OCC(=O)N1CC(=O)Nc2ccccc21 | -9 | 4.7 | -0.8% | 11% | 7% | 4 | ?
CC(NCc1ccc2c(c1)OCO2)c1ccccc1 (stereo unspecified) | -9 | ? | · | 9% | 0% | -4 | 8%
Cn1c(=O)cc(SCC(=O)NCCC2=CCCCC2)c2cc(Cl)ccc21 | 1 | 0.5 | -1.3% | 4% | -7% | 5 | 4%[15.4 µM]
CCCCN(C)CCCNC(=O)CC1Oc2ccccc2NC1=O (stereo unspecified) | 26 | 0.0 | -4.3% | 5% | -11% | -6 | -89%[inhibitor]
CCOC(=O)Cc1ccc(NS(=O)(=O)c2ccc(SC)cc2)cc1 | -23 | 19 | -1.3% | -4% | 7% | 11 | 28%
CCOc1nc(-c2ccccc2)ccc1-c1noc(-c2ccc(OC)c(OC)c2)n1 | -10 | · | ? | 9% | · | · | -3%
O=C(CNS(=O)(=O)c1ccccc1)NCC(=O)OCc1ccc(Cl)cc1 | -2 | -1.5 | -1.2% | 0% | 3% | 18 | 7.9µM*
O=C(O)[C@H]1CCCC[C@H]1C(=O)Nc1cc([N+](=O)[O-])ccc1F | -10 | 8.4 | 1.0% | 3% | 14% | 6 | -25%
O=C(N=C1SC2CS(=O)(=O)CC2N1Cc1ccc(F)cc1)C1CCCO1 (stereo unspecified) | 1 | -4.6 | 1.4% | 11% | 12% | 3 | 1%
CC(C)C(=O)NC(NC(=S)Nc1ccc(S(N)(=O)=O)cc1)C(Cl)(Cl)Cl (stereo unspecified) | 14 | 3.4 | -2.5% | 9% | -6% | 2 | -8%
CC(C(=O)N1CCN=C1c1ccccc1)N1C(=O)c2ccccc2C1=O (stereo unspecified) | -22 | -1.1 | -1.3% | 4% | 4% | 4 | ?
Cc1c(N(C)C(=O)c2ccccc2F)c(=O)n(-c2ccccc2)n1C | 11 | -0.6 | -1.1% | 5% | 14% | -2 | 6%
CC(C)(Cc1ccccc1)NC(=O)C(=O)c1cn(CC(=O)N2CCOCC2)c2ccccc12 | -17 | · | 1.2% | ? | 8% | -9 | -21%
COc1cc(C=O)ccc1OCC(=O)N1CCOCC1 | 6 | -0.5 | -9.8% | 5% | 9% | 3 | -2%
COc1ccc(-c2[nH]ncc2/C=N\NS(=O)(=O)c2ccc(Cl)cc2)cc1 | 2 | 0.5 | -2.1% | -3% | 14% | -19 | ?
COC(=O)c1cccc(NC(=O)c2cc3ccccc3o2)c1 | -56 | -2.7 | -2.3% | ? | -1% | ? | -4%
CN(C)S(=O)(=O)N1CCC(CO)(Cc2cccc(C(F)(F)F)c2)CC1 | -1 | 3.6 | -1.2% | -35% | 10% | -17 | 7%[15.4 µM]
CS(=O)(=O)N(CC(=O)Nc1ccccc1C(=O)NCc1ccccc1)c1ccc2c(c1)OCCO2 | -18 | 3.0 | -12% | 1% | 22% | -2 | 1%
CCN(CC)CCCNC(=O)Cn1nc(-c2ccccc2)ccc1=O | -11 | -2.4 | -12% | -5% | 10% | -16 | 9%
O/N=C/c1cn(-c2ccc(Cl)cc2)nn1 | 2 | -4.0 | · | 2% | 0% | -19 | -40%[inhibitor]

Compounds from the list above that have a COOH group (two):
SMILES | D2 potentiator | Menin-MLL FL inh | ClpP mod | gsp antag | Sfp inh | TRPV1 PAM | gsp ag
O=C(O)CCn1c(=O)[nH]c2ccccc2c1=O | -11 | 3.0 | ? | 1% | 6% | -7 | -37%[inhibitor]
O=C(O)[C@H]1CCCC[C@H]1C(=O)Nc1cc([N+](=O)[O-])ccc1F | -10 | 8.4 | 1.0% | 3% | 14% | 6 | -25%

The list goes on:
SMILES | D2 potentiator | Menin-MLL FL inh | ClpP mod | gsp antag | Sfp inh | TRPV1 PAM | gsp ag
O=C(CCCOc1ccccc1)Nc1nncs1 | -2 | 2.2 | 1.3% | -1% | -7% | 14 | -2%
Cc1ccccc1NC(=O)Cc1nc(COC(=O)CCOc2ccccc2)cs1 | -4 | 3.5 | 0.6% | 6% | 9% | 9 | -14%
CCCOc1ccc(NC(=O)c2cc3cc(C)ccc3[nH]2)cc1 | 2 | 0.5 | -1.3% | 3% | 1% | 3 | 12%
CCOc1ccc(N(C(=O)CNC(=O)c2ccco2)C(C(=O)NC2CCCC2)c2ccco2)cc1 (stereo unspecified) | -5 | -3.2 | 3.2µM* | -10% | -4% | 5 | 9%[15.4 µM]
O=C(CCn1nc(-c2ccccc2)c2ccccc2c1=O)Nc1cccnc1 | -8 | -1.4 | -3.7% | -2% | 21% | -33 | -94%[inhibitor]
COCC(=O)Nc1cc(Cl)ccc1C | -8 | -1.3 | · | 6% | -2% | 0 | 1%[15.4 µM]
O=C(COC(=O)c1cc(S(=O)(=O)NCc2ccccc2)ccc1O)c1cc2ccccc2o1 | -22 | 6.6 | 17% | -23% | 14% | 3 | 20%
O=c1[nH]c2ccc(NC(=S)Nc3ccc(F)cc3)cc2[nH]1 | -4 | -3.8 | -0.4% | 0% | ? | 14 | 10%
CC(=O)Nc1ccc(NC(=O)c2cc(S(=O)(=O)N3CCCCC3)ccc2N2CCOCC2)cc1 | -7 | · | 69% | -7% | · | · | -21%
O=C1/C(=C\c2cc([N+](=O)[O-])ccc2O)SC(=S)N1Cc1ccc(Cl)cc1 | -13 | ? | 0.8% | ? | ? | ? | 16%
C=CCNC(=O)Nc1ccc2nc(C)sc2c1 | -5 | -4.0 | · | -5% | 15% | 9 | -3%
CCCCn1ccnc1C(=O)c1ccc(S(=O)(=O)N2CCCC2)cc1 | -15 | -1.2 | 0.2% | 0% | 0% | -15 | 5%
Cn1cc(S(=O)(=O)N2CCCC(C(=O)O)C2)cn1 (stereo unspecified) | 0 | 7.2 | · | 2% | 24% | 19 | 11%[15.4 µM]
CN(C)CCOC(c1ccc(Cl)cc1)c1ccccn1 (stereo unspecified) | -24&27 | -0.8&0.6&-4.1 | -0.2%&1.1% | -2%&7% | 18%&-4%&16% | -2 | ·
Cc1ccc(C)c(N(CC(=O)NCCSCc2ccco2)S(C)(=O)=O)c1 | -12 | ? | -1.2% | -3% | 20µM* | -1 | -33%[inhibitor]
CS(=O)(=O)N(CC(=O)NCC1CCCO1)Cc1ccc(Cl)cc1 (stereo unspecified) | -7 | 3.4 | -3.0% | 6% | 20% | 5 | ?
COc1ccc2nc(SCC(=O)/C(C#N)=C(\C)N)[nH]c2c1 | -1 | 0.1 | 0.2% | -4% | 10% | -8 | -15%
O=C(Nc1ccc(Cl)cc1)c1ccc(Br)cc1F | ? | 3.6 | 2.9% | 4% | 16% | -6 | -48%[inhibitor]
NC(=O)c1nsc(C(=O)N(CC(=O)NCc2ccccc2)c2ccc(F)cc2)c1N | -11 | 1.9 | · | 0% | 16% | 0 | 17%

Profiles, looked up by structure. Order of screens: D2 potentiator, Menin-MLL FL inh, ClpP mod, gsp antag, Sfp inh, TRPV1 PAM, gsp ag
COc1ccc2nc(SCC(=O)/C(C#N)=C(\C)N)[nH]c2c1 is entered as -1, 0.1, 0.2%, -4%, 10%, -8, -15%
NC(=O)c1nsc(C(=O)N(CC(=O)NCc2ccccc2)c2ccc(F)cc2)c1N is entered as -11, 1.9, ·, 0%, 16%, 0, 17%
CS(=O)(=O)N(CC(=O)NCC1CCCO1)Cc1ccc(Cl)cc1 (stereo unspecified) is entered as -7, 3.4, -3.0%, 6%, 20%, 5, ?

Assay outcomes: PubChem, National Center for Advancing Translational Sciences (NCATS)
